NS1 function inh – qHTS Assay for Inhibitors of Influenza NS1 Protein Function; S. cerevisiae slowed by influenza A NS1, growth recovery by OD600; Potency, µM (top dose mostly 46.1 µM), for inactives: at the highest dose activity, positive = more growth; 0.4% of 270,000 active; AID 2326, 2010; active means well fitted rising curve with a large enough effect; inconclusive means small, poorly fitted or top-dose-only effect; inactive means no such curve, though single readings can be large or run the other way; further: nearly all actives have a fitted effect of over 50% in size
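S. cerevisiae expressing influenza A NS1, grown in glucose, washed, then diluted 1:100 into pH 6.0 -URA galactose medium with 23 nl compound. Growth recovery read as OD600; NS1-free strain serves as control.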
Marburg entry inh – qHTS for inhibitors of binding or entry into cells for Marburg Virus; Marburg virus pseudotyped entry inhibition, cell reporter; control for the full effect not named in the record; about a third of the inactives were read at about 46 µM; Potency, µM (highest dose often 37.8 µM), inactives show top-dose activity change, negative = inhibition, actives largely listed as inhibitors; 1.8% of 300,000 active; AID 540276, 2011; active = well fitted inhibition curve with a large enough effect; inconclusive = small, poorly fitted or top-dose-only effect, or effect the other way; inactive = flat fitted curve, though single readings scatter; tested in HEK293 cells; about a fifth of its hits are not listed in these tables; further: on the % scale 0 is the no-effect control and ±100 the full control effect; luciferase read-out
SARS PLpro yeast – qHTS of Yeast-based Assay for SARS-CoV PLP | 0.19% of 330,000 active | Potency, µM (doses to about 32.9 µM), inactives show at the highest dose activity, positive = growth rescue | S. cerevisiae expressing SARS-CoV PLpro, growth rescue; control for the full effect not named in the record; active means well fitted rising curve with a large enough effect; inconclusive means small, poorly fitted or top-dose-only effect; inactive means no such curve, though single readings can be large or run the other way; further: 0% is about no effect; nearly all actives have a fitted effect of over 55% in size; growth read by luminescence after 48 h
StopGo reporter – High Throughput Screening for Foot and Mouth Disease Virus Antivirals; Potency, µM (top dose mostly 57.9 µM), without a hit: at the top dose signal change, negative = less light; human cells with a luciferase reporter of 2A StopGo recoding; control for the full effect not named in the record; 1.2% of 410,000 active; active = well fitted falling curve with a large enough effect; inconclusive = small, poorly fitted or top-dose-only effect; inactive = no such curve, though single readings can be large or run the other way; tested in HEK293T cells; further: on the % scale 0 is the no-effect control and ±100 the full control effect; nearly all actives have a fitted effect of over 45% in size; luciferase light after 4 h
Lassa entry inh – qHTS for Inhibitors of binding or entry into cells for Lassa Virus. Lassa virus pseudotype entry inhibition, cell reporter; control for the full effect not named in the record. Potency, µM (titrated, usually from 37.9 µM), for inactives: at the highest dose activity change, negative = inhibition, hits mostly inhibitors. 1.2% of 300,000 active. AID 540256, 2011; active means well fitted inhibition curve with a large enough effect; inconclusive means small, poorly fitted or top-dose-only effect, or effect the other way; inactive means flat fitted curve, though single readings scatter; tested in HEK293 cells; further: on the % scale 0 is the no-effect control and ±100 the full control effect; nearly all actives have a fitted effect of over 50% in size; luciferase read-out
RE007 growth inh – qHTS Assay for Inhibitors of the HIV-1 protein Vpr; S. pombe RE007 Vpr strain, BacTiter-Glo ATP luminescence, 24 h; control for the full effect not named in the record; Potency, µM (doses to about 92.2 µM), for inactives: at the top dose activity change, negative = less growth; 0.21% of 360,000 active; AID 651644, 2012; active = well fitted falling curve with a large enough effect; inconclusive = small, poorly fitted or top-dose-only effect; inactive = no such curve, though single readings can be large or run the other way;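 further: on the % scale 0 is the no-effect control and ±100 the full control effect; nearly all actives have a fitted effect of over 50% in size; the assay follows cell death caused by Vpr and the record does not say whether a fall means rescue or toxicity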
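Fission yeast RE007 carrying one integrated HIV-1 vpr copy, seeded at OD 0.01 in PMG+AL medium with 23 nL pinned compound. Grown 24 h at 30 degrees; viability read by BacTiter-Glo luminescence after 5 min.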
Cruzain Triton – qHTS Assay for Promiscuous and Specific Inhibitors of Cruzain (with detergent); Cruzipain (Trypanosoma cruzi), P25779; purified cruzain, Z-FR-AMC fluorescence, 0.01% Triton; Potency, µM, for the others: max response, negative = inhibition, hits mostly inhibitors; 0.43% of 200,000 active;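 further: plate controls were neutral wells for no effect and buffer without enzyme for full effect; nearly all actives have a fitted effect of over 40% in size; top concentration of the series not given in the record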
Target sequence (P25779 123-467 limits assumed): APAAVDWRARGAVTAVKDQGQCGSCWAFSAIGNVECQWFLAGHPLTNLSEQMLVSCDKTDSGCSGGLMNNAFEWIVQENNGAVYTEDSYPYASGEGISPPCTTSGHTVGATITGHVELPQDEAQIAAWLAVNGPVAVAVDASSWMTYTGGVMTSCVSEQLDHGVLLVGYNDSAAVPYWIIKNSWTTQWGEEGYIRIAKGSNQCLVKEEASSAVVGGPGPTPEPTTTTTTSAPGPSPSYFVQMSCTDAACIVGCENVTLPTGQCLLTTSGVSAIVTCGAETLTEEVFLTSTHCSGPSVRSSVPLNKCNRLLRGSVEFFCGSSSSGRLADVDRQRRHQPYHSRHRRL
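Cruzain (1.5 nM) preincubated 15 min at RT with compound in 100 mM sodium acetate pH 5.5, 5 mM DTT, 0.01% Triton X-100. Reaction started with 2 uM Z-FR-AMC; AMC fluorescence (ex 360/em 450 nm) change over 60 s gave rate.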
Cruzain noTriton – qHTS Assay for Promiscuous and Specific Inhibitors of Cruzain (without detergent) | purified cruzain, Z-FR-AMC fluorescence, no detergent | Potency, µM, for the others: max response, negative = inhibition, hits mostly inhibitors | 2.3% of 200,000 active;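 further: plate controls were enzyme without inhibitor for no effect and buffer without enzyme for full effect; nearly all actives have a fitted effect of over 40% in size; top concentration of the series not given in the record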
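Purified cruzain at 1.5 nM, pre-incubated 15 min with compound at room temperature in 100 mM sodium acetate pH 5.5, 5 mM DTT, 0.00005% Triton X-100. Reaction started with 2 uM Z-FR-AMC; AMC fluorescence increase over 60 s gives rate.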
* marks the source's active call; other numbers are inactive results; ? = inconclusive; . = not tested or not shown; [ ] = dose if it differs, or a comment. Unless noted, the call rests on the fitted dose curve; in most records, active means well fitted curve in the direction sought with a large enough effect; inconclusive means small, poorly fitted or top-dose-only effect, or another doubt; inactive means no such curve, though single readings can be large; an effect the other way counts as inactive or inconclusive. Potency means the concentration at half of the fitted maximal effect.

Results follow in this order: NS1 function inh | Marburg entry inh | SARS PLpro yeast | StopGo reporter | Lassa entry inh | RE007 growth inh | Cruzain Triton | Cruzain noTriton
1. CCOC(=O)c1c(NC(=O)COC)sc(C(C)=O)c1C
→ 0% | 3% | -4% | 0% | -8% | -2% | 2.5% | ?
2. O=C(CSc1ncccc1C(=O)O)Nc1ccc2c(c1)OCCO2
→ 11% | 2%[46.1 µM] | -1% | -15% | 16%[46.1 µM] | -20% | . | .
3. COc1ccc(-c2cc(=O)oc3cc(OCC(=O)N4CCOCC4)ccc23)cc1
→ -2% | 4%[46.1 µM] | 0% | -5% | . | -11% | . | .
4. O=C1c2ccccc2C(=O)N1Nc1ccc([N+](=O)[O-])cc1[N+](=O)[O-]
→ 8% | 8% | 1% | -15% | 1% | . | . | .
5. Cc1ccc(NC(=S)N2CCOCC2)cc1
→ 4% | 1% | 5% | 16% | 11% | 11% | -0.1% | 12%
6. O=c1[nH]c(=O)n(Cc2ccco2)c(O)c1/C=N/N1CCCCCC1
→ ? | -1% | 12% | -10% | -1% | -1% | -4.9% | 1%
7. CC(C)C(=O)Nc1cccc(C(=O)Nc2ccccc2C(=O)O)c1
→ -1% | ? | -4% | 26% | -2% | 21% | 2.6% | 0%
8. CCOC(=O)c1sc2nc3n(c(=O)c2c1C)CCCCC3
→ -28% | ? | 4% | 48%[activator] | 4% | 1% | -7.6% | -2%
9. O=C(COC(=O)/C=C/c1ccccc1[N+](=O)[O-])Nc1ccc(S(=O)(=O)N2CCOCC2)cc1
→ . | -5% | 3% | -6% | 28% | 2% | . | .
10. CCc1ccccc1NC(=S)NNC(=O)c1ccccc1Cl
→ 1% | . | 0% | 28% | . | 4% | . | .
11. O=C(COc1ccccc1)NNc1nc2c(F)cccc2s1
→ 6% | 9%[46.1 µM] | -1% | 3% | -5% | 5% | . | .
12. COc1ccc(N(C(=O)/C=C/C(=O)Nc2cc(C)on2)C(C(=O)NC2CCCC2)c2ccccc2C)cc1 (stereo unspecified)
→ 5% | 9.2µM* | 5% | 20% | ? | 2% | -4.5% | 24%
13. Cc1ccc(NC(=O)c2ccc3c(=O)n4c(nc3c2)CCCCC4)nc1
→ . | -2% | -5% | -9% | -22% | -27% | . | .
14. CCC(=O)c1ccc(OCC(=O)Nc2ccc3nc(C)sc3c2)cc1
→ -7% | . | 3% | -9% | . | -2% | . | .
15. CCOc1ncccc1C(=O)NCC(c1ccccc1)N(C)C (stereo unspecified)
→ -5% | 6%[46.1 µM] | 1% | 17% | 6%[46.1 µM] | -4% | . | .
16. CCCN(C(=O)Cn1nc(Cc2cccnc2)c2ccccc2c1=O)c1ccc(C(C)C)cc1
→ . | ? | . | -16% | -19%[46.1 µM] | . | 0.6% | ?
17. CCO[C@H]1OC(C(=O)N2CCOCC2)=C[C@@H](c2ccc(C(F)(F)F)cc2)[C@@H]1CCCO
→ -4% | . | 0% | 8% | . | 3% | . | .
18. COc1cccc(CNC(=O)C2CCN(S(=O)(=O)c3ccc4c(c3)CCC(=O)N4)CC2)c1
→ -17% | -4% | 0% | -8% | . | 20% | 0.1% | 9%
19. CCCn1c(=O)n(CC(=O)NCC2CCCO2)c(=O)c2c3c(sc21)COC(C)(C)C3 (stereo unspecified)
→ 4% | . | -6% | 0% | . | 14% | . | .
20. CCN(c1ccc(C)cc1C)S(=O)(=O)c1nnc(NC(=O)C(C)C)s1
→ 5% | . | -1% | -27% | . | 17% | . | .
21. CCCN(CCC)CCNC(=O)c1cc2c(-c3ccc(Cl)cc3)nn(C)c2s1
→ 1% | 4µM* | -4% | ? | 1%[46.1 µM] | -2% | -2.4% | -5%
22. O=C(NCCc1nc2ccccc2[nH]1)/C(=C/c1ccc(F)cc1)NC(=O)c1ccco1
→ -3% | . | 0% | -14% | . | -8% | . | .
23. CCOC(=O)Cc1csc(NC(=O)CSC2=NCCS2)n1
→ 1% | . | -6% | -29% | . | -8% | . | .
24. Cc1noc(C)c1COc1ccc(C(=O)OCC(=O)N2c3ccccc3NC(=O)C2(C)C)cc1
→ 14% | -11% | 0% | ? | -16% | 0% | -3.6% | 3%
25. COc1cc(C2c3cc4c(cc3OC(NNC(N)=O)C2C)OCO4)cc(OC)c1OC (stereo unspecified)
→ . | ? | . | -14% | ? | 12% | . | .
26. O=C(O)c1ccccc1-c1nnc2c(Cl)cc(C(F)(F)F)cn12
→ 5% | . | 9% | 6% | . | 10% | . | .
27. CC(=O)c1ccc(NC(=O)c2ccc3c(c2)nnn3C2CCCC2)cc1
→ . | . | . | 5% | ? | . | 3.1% | -3%
28. O=S(=O)(c1ccc(NC2CCCc3ccccc32)nc1)N1CCOCC1 (stereo unspecified)
→ -3% | 3% | -8% | -15% | -2% | -8% | 0.3% | 7%
29. CCO[C@@H]1OC(C(N)=O)=C[C@H](C2CCCCC2)[C@H]1CCCO
→ 2% | . | 0% | -17% | . | 16% | . | .
30. CNc1c(NC(=O)c2ccc(OC)c(OC)c2)c(=O)oc2ccccc12
→ . | 0%[46.1 µM] | . | -12% | 21%[46.1 µM] | . | -3.6% | 14%
31. O=C(O)c1ccccc1C(=O)N1CCN(Cc2ccc3c(c2)OCO3)CC1
→ 1% | . | 10% | -16% | . | 3% | . | .
32. Cc1cccc(N(Cc2ccccc2)C(=O)C2CCN(C(=O)c3ccccc3C)CC2)c1
→ . | -40% | -9% | ? | -29% | 34% | . | .
33. CCc1ccc(NC(=O)C(C)Nc2ccc(S(=O)(=O)NC(C)=O)cc2)cc1 (stereo unspecified)
→ 9% | 7% | 7% | 0% | -1% | 3% | -2.0% | -1%
34. O=S(=O)(Nc1ccccc1)c1ccc(F)cc1
→ 0% | 0% | -2% | 19% | -9% | -9% | 3.1% | 1%
35. CCC(C)c1ccc(OCCn2cc(/C=N/NC(=O)CSc3nnc(C)s3)c3ccccc32)cc1 (stereo unspecified)
→ 4% | ? | -23% | -8% | -11% | -1% | 0.7% | 4µM*
36. COc1ccc(C2OC(=O)Cc3cc(OC)c(OC)cc32)cc1 (stereo unspecified)
→ -3% | ? | 1% | -12% | 18% | 4% | . | .
37. CCOc1ccc(C2c3c(-c4ccccc4O)n[nH]c3C(=O)N2Cc2cccnc2)cc1OC (stereo unspecified)
→ . | -2%[46.1 µM] | . | 0% | -23%[46.1 µM] | . | -2.5% | 7%
38. C=C1C2(C(=O)Nc3ccc(SC(F)F)cc3)CCC(C2)C1(C)C (stereo unspecified)
→ -6% | 15% | 5% | ? | -8% | 11% | -7.2% | -4%
39. C=CCOc1cccc(/C=N/NC(=O)CC(=O)NC2CCCCC2)c1
→ 11% | -14% | 2% | -15% | -9% | -13% | . | .
40. O=S(=O)(NC1CCN(Cc2ccccc2)CC1)c1ccc(Cl)cc1
→ -1% | -25% | 0% | -5% | 0% | -2% | . | .
41. CC(C)[C@H](N)C(=O)NC[C@H]1CC[C@H](C(=O)N[C@@H](Cc2ccccc2)C(=O)O)CC1
→ 3% | 2% | 2% | -17% | ? | 10% | . | .
42. CCOC(=O)c1c(-c2cccs2)csc1NC(=O)C(C)(C)C
→ -8% | -3% | -35% | 0% | -17% | -9% | -8.8% | -3%
43. COC(=O)[C@@H]1Cc2c([nH]c3ccccc23)C(C)N1C(=O)c1ccccc1 (stereo partly specified)
→ 2% | . | -2% | ? | . | 2% | . | .
44. Cc1cc(C)c2nc(N(CCCN(C)C)C(=O)C3=COCCO3)sc2c1
→ . | 20µM* | 3% | 0% | ? | -3% | . | .
45. CCOC(=O)C1=NN(c2cccc(Cl)c2)C2=NC(C)=C(C(=O)OC)C(c3cccs3)N12 (stereo unspecified)
→ 12% | -5% | -10% | -10% | -5% | 9%[3.69 µM] | -7.8% | -3%
46. CCC1CCCCN1C(=O)CSc1nc(-c2ccc(OC)c(OC)c2)cc(C(F)(F)F)n1 (stereo unspecified)
→ . | ? | . | -13% | -7%[46.1 µM] | . | -24% | ?
47. O=C(CSc1nc2c(sc3ccccc32)c(=O)n1Cc1ccccc1)NCC1CCCO1 (stereo unspecified)
→ 1% | -28% | 1% | -3% | -1% | 0%[3.69 µM] | -3.7% | ?
48. O=c1oc2ccccc2c(N2CCOCC2)c1[N+](=O)[O-]
→ 3% | 0%[46.1 µM] | 0% | -8% | 14%[46.1 µM] | 13% | . | .
49. Cc1ccc(-c2nc3sc4c(N)ncnc4c3c3c2CCCC3)cc1
→ 5% | 3% | 1% | -9% | ? | 4%[3.69 µM] | 0.3% | 2%
50. Cc1ccc(S(=O)(=O)NNC(=O)c2cc3cc4ccccc4nc3s2)cc1
→ 3% | 10% | 9% | 25% | 4% | 3% | -14% | -5%
51. O=C(Nc1ccon1)c1ccc(Cl)c(S(=O)(=O)N2CCCCC2)c1
→ 5% | -11% | -2% | -11% | 2% | -10% | . | .
52. O=C(OCn1ncc(Br)c(Br)c1=O)c1ccc(F)cc1
→ -34% | 5.6µM* | -46% | 14µM* | 13µM* | ? | -18% | -5%

Entries of single compounds as entered above. Order of values: NS1 function inh | Marburg entry inh | SARS PLpro yeast | StopGo reporter | Lassa entry inh | RE007 growth inh | Cruzain Triton | Cruzain noTriton
`Cc1cc(C)c2nc(N(CCCN(C)C)C(=O)C3=COCCO3)sc2c1` is listed with . | 20µM* | 3% | 0% | ? | -3% | . | .
`O=C(CSc1nc2c(sc3ccccc32)c(=O)n1Cc1ccccc1)NCC1CCCO1` (stereo unspecified) is listed with 1% | -28% | 1% | -3% | -1% | 0%[3.69 µM] | -3.7% | ?
`O=c1oc2ccccc2c(N2CCOCC2)c1[N+](=O)[O-]` is listed with 3% | 0%[46.1 µM] | 0% | -8% | 14%[46.1 µM] | 13% | . | .
`CC(C)[C@H](N)C(=O)NC[C@H]1CC[C@H](C(=O)N[C@@H](Cc2ccccc2)C(=O)O)CC1` is listed with 3% | 2% | 2% | -17% | ? | 10% | . | .
